HSV replic up: enhancers of HSV replication in host cells, fold increase, host cell viability | HSV replication augmentation in cells | maximum fold increase | hit rate 0.005% among 220,000 | AID 1956, 2009;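 active = peak rise of 1.5-fold or more in the series; inconclusive = self-fluorescent or not available for retest; tested in PC3 cells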;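 also: first round at 10 µM; read as green reporter fluorescence; hits show the peak of a series up to 25 µM; 1 = signal of infected wells without compound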
PKD1 inh: inhibitors of human PKD1 kinase, biochemical, fluorescence polarization. PKD1 kinase fluorescence polarization assay. Serine/threonine-protein kinase D1 (Homo sapiens), Q15139. hit rate 0.056% among 200,000. inhibition, %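 (about 10 µM by stock and volumes)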;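 active = inhibition of 50% or more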;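 also: controls were vehicle for no effect and a reference inhibitor for full effect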
Insulin prom inh: inhibitors of insulin promoter-driven GFP, primary screen, imaging, TRM-6 cells (human fetal islet line), eGFP reporter, cell count. reporter expression induced with tamoxifen. inhibition, % at 2 µM. hit rate 0.9% among 130,000. AID 1273, 2008;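 active = inhibition above the mean plus 3 SD, with well images judged a real hit on visual review, cut at about 60% in these data, passing the limit was not always enough; inconclusive = inhibition over the cutoff but images rejected on review; inactive = inhibition not above the cutoff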
GALR2 agonist: GALR2 receptor agonists, primary screen, cell-based; activation, %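 (tested at 5 µM)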; GALR2-expressing cells, agonist activation read-out; hit rate 0.48% among 140,000;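 active = above mean plus 3 SD of all compounds, about 5% in these data, not always enough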;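 also: 0% = vehicle buffer wells and 100% = reference agonist at full effect; tested in CHO reporter cells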
Target sequence (O43603 whole entry, looked up): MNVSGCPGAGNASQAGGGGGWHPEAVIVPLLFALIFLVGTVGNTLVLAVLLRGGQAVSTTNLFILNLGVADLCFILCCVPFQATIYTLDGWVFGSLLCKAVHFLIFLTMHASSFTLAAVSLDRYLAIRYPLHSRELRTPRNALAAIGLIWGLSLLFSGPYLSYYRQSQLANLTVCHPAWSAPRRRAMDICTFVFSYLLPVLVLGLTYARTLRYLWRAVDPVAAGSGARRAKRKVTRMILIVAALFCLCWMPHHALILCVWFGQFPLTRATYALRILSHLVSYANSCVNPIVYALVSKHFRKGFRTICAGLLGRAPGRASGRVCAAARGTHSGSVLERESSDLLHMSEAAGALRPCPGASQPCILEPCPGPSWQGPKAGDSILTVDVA
RGS16-Gao: modulators of RGS16 binding to Galphao, primary screen, biochemical, human proteins, multiplexed bead flow cytometry; bead-based flow cytometry RGS16-Galphao binding, fluorescence; actives lie on both sides; binding response (% of control), % at 10 µM; hit rate 0.38% among 220,000; AID 1441, 2008;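 active = below 25% or above 175%, edge rows of some plates excepted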;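 also: Galphao activated by GDP with aluminum fluoride before binding; 100% = wells without compound and 0% = beads without RGS; some results beyond the cut were filed as inactive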
Target sequence (O15492 whole entry, looked up): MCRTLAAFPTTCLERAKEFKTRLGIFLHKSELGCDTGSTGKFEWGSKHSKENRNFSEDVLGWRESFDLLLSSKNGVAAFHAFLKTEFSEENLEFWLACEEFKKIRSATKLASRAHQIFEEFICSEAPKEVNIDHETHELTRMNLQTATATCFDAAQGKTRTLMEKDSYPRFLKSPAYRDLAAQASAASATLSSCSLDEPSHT
Target sequence (P09471 whole entry, looked up): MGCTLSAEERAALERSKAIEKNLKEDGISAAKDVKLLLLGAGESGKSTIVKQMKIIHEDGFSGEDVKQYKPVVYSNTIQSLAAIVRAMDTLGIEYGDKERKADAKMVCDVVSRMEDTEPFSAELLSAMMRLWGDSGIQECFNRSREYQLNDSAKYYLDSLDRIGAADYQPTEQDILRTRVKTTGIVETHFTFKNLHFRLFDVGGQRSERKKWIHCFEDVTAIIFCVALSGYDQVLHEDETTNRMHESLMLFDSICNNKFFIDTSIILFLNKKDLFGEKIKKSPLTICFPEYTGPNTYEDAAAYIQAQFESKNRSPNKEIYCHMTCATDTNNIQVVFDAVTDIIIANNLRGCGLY
Insulin prom inh cell count: further read-out of Insulin prom inh, marked with its call; normalized cell count, %; measured here: cell count, toxicity; reference of the scale not given here;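 cells exposed to compound for 48 h; stained nuclei by imaging scaled within each plate; lower means fewer cells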
HSV replic up primary fold: further read-out of HSV replic up, marked with its call; fold increase; compound at 10 µM; measured here: primary screen fold increase 10 uM; tested in PC3 cells;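 GFP signal in the first replicate; 1 = infected wells without compound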
An asterisk follows results filed as active; i = inactive; ? = inconclusive; · = not tested or not shown. An excerpt; rates above refer to the full screens.

Values run as follows: HSV replic up	HSV replic up primary fold	PKD1 inh	Insulin prom inh	Insulin prom inh cell count	GALR2 agonist	RGS16-Gao
- CCOC(=O)C(O)(c1ccc(N=c2ccccn2C)cc1)C(F)(F)F (centres undefined)
    i	0.8	·	·	·	·	116
- CN(C)c1ccc(C=C(C#N)C#N)cc1
    i	1	-7	·	·	-2.0	69
- Cc1nn(Cc2ccccc2)c(C)c1C=C1C(=O)NC(=S)NC1=O
    i	1	-12	-5	48	-1.2	104
- Cc1nn(Cc2ccccc2)c(C)c1C(=O)OCC(=O)NCc1ccco1
    i	1	8	16	127	-2.1	106
- C=CCn1c(O)c(C(C)=NC2CC2)c(=O)[nH]c1=O
    i	1	6	-25	66	1.4	104
- Cc1cccc(-n2c(=S)[nH]c3ccccc3c2=O)n1
    i	0.88	-2	·	·	·	98
- O=c1[nH]c(O)c(C=Nc2ccccc2Sc2ccccc2)c(=O)[nH]1
    i	1	·	·	·	·	98
- CC(=O)c1c(O)n(C)c(=S)n(-c2ccccc2)c1=O
    i	1.1	-2	18	112	-0.9	105
- Cc1c(C(c2ccc(Cl)cc2Cl)c2c(O)c3ccccc3oc2=O)c(=O)n(-c2ccccc2)n1C (centres undefined)
    i	1.1	-4	47	75	·	99
- Cc1ccc2c(c1)c(=O)c1c3n2CCN(CC#N)C3CC1 (centres undefined)
    i	1.1	9	·	·	·	107
- Cn1cccc1/C=C1\C(=O)NC(=O)N(Cc2ccccc2Cl)C1=O
    i	1	-9	19	57	·	91
- O=C(Cn1ncc2c3ccccc3n(Cc3ccc(F)cc3)c2c1=O)N1CCC2(CC1)OCCO2
    i	1	0	-417	62	-1.9	98
- OCC[n+]1c2ccccc2nc2ccc(N3CCOCC3)cc21
    i	1.3	·	·	·	·	93
- Cc1nc2ccccc2c(=O)n1-c1ccncc1
    i	1	·	·	·	·	103
- Cc1ccc(C(=O)C2(C)N(O)C(C)C(c3cccs3)=[N+]2[O-])cc1 (centres undefined)
    i	0.9	-4	23	77	-1.7	96
- CN(C)C(=O)On1c(-c2ccccc2)nc2ccc(Cl)cc21
    i	0.88	-7	-17	141	-2.3	103
- CCCCC12CNCC(C)(CNC1)C2=O
    i	0.96	-7	0	121	-0.7	87
- COc1ccccc1CN1CCN(C(=O)Cc2ccccc2)CC1
    i	0.93	·	·	·	·	113
- N#CC1=C(N)Oc2c(c(=O)oc3ccccc23)C1c1ccccc1OC(=O)c1cccs1 (centres undefined)
    i	0.86	-7	·	·	0.0	106
- Cc1cc(C=O)c(C)n1C1CCCCC1
    i	0.9	-2	69*	75*	-3.1	101
- CCN(CC)C(=O)c1ccc(NC(=O)c2cccc(C(F)(F)F)c2)cc1
    i	0.86	2	·	·	·	102
- Fc1cccc(C2NCCc3[nH]cnc32)c1 (centres undefined)
    i	0.98	2	6	80	0.1	124
- COc1ccc(CN2C(=O)NC(=O)/C(=C/c3ccoc3)C2=O)cc1
    ?	·	·	·	·	·	92
- CCCCn1c(C)c(C(=O)O)c2cc(OC)ccc21
    i	0.86	-18	-7	94	-1.6	102
- Cc1ccc(-n2cc(CNC(C)Cc3cnccn3)c(-c3cccc(C)c3)n2)cc1 (centres undefined)
    i	0.68	1	·	·	·	101
- CC(C)C1(C)N=C(c2nc3ccccc3cc2C(=O)O)NC1=O (centres undefined)
    i	1	5	·	·	-1.5	99
- N#CCCn1cc(C(=O)Nc2ccccc2Br)c(-c2ccc3c(c2)OCCO3)n1
    ·	·	7	·	·	1.9	103
- OC(c1cccc(Cl)c1)(c1cccc(Cl)c1)C1CN2CCC1CC2 (centres undefined)
    i	0.63	-5	·	·	·	101
- O=C1NC(=S)NC(=O)C1=Cc1ccc2c(c1)CCN2CCCCl
    i	1	·	·	·	·	91
- CCOP(=O)(C#CC(C)(C)C)C(C)(O)c1ccccc1 (centres undefined)
    i	0.77	-7	-36	70	-1.3	102
- CN1CCN(c2ccc([N+](=O)[O-])c3cccnc23)CC1
    ·	·	-5	·	·	-1.2	135
- OCc1cnc[nH]1
    i	0.89	1	33	125	-1.7	106
- Cc1cccc(OC(=O)N2CCOCC2)c1
    i	1.1	11	-61	105	0.3	101
- CC(N)Cc1c[nH]c2cc3c(cc12)OCCO3 (centres undefined)
    ·	·	1	28	107	-2.8	102
- CC(C)Oc1ccc(C2C(C#N)=C(N)Oc3c2c(=O)oc2ccccc32)cc1 (centres undefined)
    i	0.93	1	-37	146	0.8	112
- O=[N+]([O-])c1ccc(C2C3C(c4ccccc4)=NC4(CCCC4)N32)cc1 (centres undefined)
    i	1.1	3	-33	68	-1.9	74
- c1cc2n(c1)-c1c(ccc3c1OCO3)CNC2c1ccc2c(c1)OCO2 (centres undefined)
    i	0.81	-1	·	·	-0.6	104
- COc1ccc(NC(c2ccccc2)P(=O)(Oc2ccccc2)Oc2ccccc2)cc1 (centres undefined)
    i	1.1	9	·	·	0.3	99
- CCOC(=O)c1nc2ccccc2c(=O)n1-c1ccc(C)cc1
    i	0.95	-5	-8	152	-0.8	98
- O=c1cccc2n1CC1CC2CN(Cc2c(Cl)cccc2Cl)C1 (centres undefined)
    i	0.98	9	·	·	-1.3	99
- COC(=O)CC1=C(C(=O)OC)C2(C(=O)Nc3c(C)cccc32)C(C#N)=C(N)O1 (centres undefined)
    i	0.79	3	·	·	-1.7	100
- CC(C)(C)c1ccc(S(=O)(=O)N2CC3CC(C2)c2cccc(=O)n2C3)cc1 (centres undefined)
    i	1.1	0	6	92	-3.1	104
- Fc1ccc(N2CCN(Cc3ccc4c(c3)OCO4)CC2)cc1
    i	0.91	2	4	142	-0.8	102
- c1ccc2c(c1)[nH]c1cnccc12
    i	0.78	-3	36	116	-0.2	109
- CCC(=Nc1ccc(OC)cc1OC)c1c(O)n(C)c(=O)n(C)c1=O
    i	0.9	-7	·	·	-0.3	51
- CS(=O)(=O)NCc1nnc2n1-c1ccc(Cl)cc1C(c1ccccc1)=NC2
    i	1.1	16	-33	100	-0.1	100
- O=c1[nH]c(=S)[nH]c(O)c1C(c1ccccn1)c1c(O)[nH]c(=S)[nH]c1=O
    i	0.97	-5	-22	110	·	104
- N=c1c[n+](CC23CC4CC(CC(C4)C2)C3)[n-]o1
    i	0.92	3	·	·	-1.2	99
- CCN1CCN(Cc2ccc(OC(F)(F)F)cc2)CC1
    i	0.88	0	-31	116	-1.9	85
- O=P(NC(c1ccccc1)c1ccccc1)(Oc1ccccc1)Oc1ccccc1
    i	1	-3	-33	106	-0.3	79
- O=c1[nH]c(CN2CC=C(c3ccccc3)CC2)nc2scc(-c3ccccc3)c12
    i	1.1	·	·	·	·	101
- O=c1c2ccccc2nc(Cc2ccccc2)n1-c1ccccc1O
    i	0.96	·	·	·	·	105
- O=C1CC(c2cccnc2)=NN1c1ccc(Cl)cc1Cl
    i	0.9	1	40	155	·	110
- C/C(=N\N1CCCCCC1)c1c(O)n(-c2ccc(Cl)cc2)c(=O)[nH]c1=O
    ·	·	·	·	·	·	105
- O=C(N/N=C1/CN2CCC1CC2)c1cccc(O)c1
    i	0.87	11	·	·	-1.3	100
- CNC(C(=O)c1ccccc1)C(OC)c1cccc([N+](=O)[O-])c1 (centres undefined)
    i	1	·	·	·	·	103
- Cc1c(C=C2C(=O)N(C)C(=O)N(C)C2=O)c(=O)n(-c2ccccc2)n1C
    i	1.1	-5	33	50	-1.6	95
- COc1ccc(-n2c(O)c(C(C)=NCc3ccc4c(c3)OCO4)c(=O)[nH]c2=O)cc1
    i	0.92	·	·	·	·	102
- CC(C)[C@]12O[C@H]1[C@@H]1O[C@]13[C@]1(O[C@H]1C[C@H]1C4=C(CC[C@@]13C)C(=O)OC4)[C@@H]2O
    i	0.44	·	·	·	·	98
- COC(=O)c1cncn1C(C)c1ccccc1 (centres undefined)
    i	1.1	-6	-314	38	-0.4	102

New compounds follow.
Values run as follows: HSV replic up	HSV replic up primary fold	PKD1 inh	Insulin prom inh	Insulin prom inh cell count	GALR2 agonist	RGS16-Gao
- CCCC12CN3CCN(C1)CC(CCC)(C3)C2=O
    i	0.9	·	·	·	·	100
- CCOc1nc(NC(C)C)nc(N2CC3CC(C2)c2cccc(=O)n2C3)n1 (centres undefined)
    i	0.92	-6	·	·	·	104
- C=CCSc1nc2c(c(-c3ccsc3)c1C#N)CN(C)CC2
    i	1.1	·	·	·	·	103
- CC1CN=C(NCc2ccc(F)cc2)S1 (centres undefined)
    i	0.92	3	-7	181	·	107
- CC1=C(/C=C/c2ccccc2)CCN(C)C1
    i	0.99	5	·	·	-2.7	106
- NC(=O)Nc1cccc(C(F)(F)F)c1
    i	0.98	-8	16	100	-4.0	101
- Cc1ccc(-c2nc3ccccc3c(=O)n2-c2cccc(O)c2)cc1
    i	0.95	0	-60	36	·	95
- C#CCN1CCN(c2cccc(C(F)(F)F)c2)CC1
    i	0.95	-2	56	123	·	101
- Cc1cccc(-n2c(O)c(C=NCCN3CCCCC3)c(=O)[nH]c2=O)c1
    i	0.98	·	·	·	·	92
- Cn1cccc1CNCCc1ccccc1
    i	0.95	-3	15	132	-0.5	80
- COc1cccc(O)c1CN1CCCC(C(=O)c2ccccc2SC)C1 (centres undefined)
    i	0.87	-1	·	·	·	105
- CC/C(=N\NC(=O)c1ccccc1O)c1c(O)n(Cc2ccccc2)c(=O)[nH]c1=O
    i	1.1	·	·	·	·	100
- CN(c1ccc(OCC(=O)N2CCN(C/C=C/c3ccccc3)CC2)cc1)S(=O)(=O)c1cccs1
    i	0.92	·	·	·	·	103
- COc1ccc(C)cc1NC(=O)N1CCC2(CC1)OCCO2
    i	1.1	-6	·	·	·	105
- O=C(CCN1C(=O)COc2ccccc21)N1CCC2(CC1)OCCO2
    i	0.99	-9	·	·	-4.2	101

Four entries from above, comma-delimited:
structure,HSV replic up,HSV replic up primary fold,PKD1 inh,Insulin prom inh,Insulin prom inh cell count,GALR2 agonist,RGS16-Gao
C=CCSc1nc2c(c(-c3ccsc3)c1C#N)CN(C)CC2,i,1.1,·,·,·,·,103
CC1CN=C(NCc2ccc(F)cc2)S1 (centres undefined),i,0.92,3,-7,181,·,107
CC1=C(/C=C/c2ccccc2)CCN(C)C1,i,0.99,5,·,·,-2.7,106
NC(=O)Nc1cccc(C(F)(F)F)c1,i,0.98,-8,16,100,-4.0,101

(listing goes on)
Values run as follows: HSV replic up	HSV replic up primary fold	PKD1 inh	Insulin prom inh	Insulin prom inh cell count	GALR2 agonist	RGS16-Gao
- Cc1ccccc1CS(=O)(=O)Cc1ccc(C(=O)N2CCC3(CC2)OCCO3)o1
    ·	·	14	-62	44	-2.5	99
- COC(=O)COc1cc(C)cc2oc(=O)c3c(c12)CCCC3
    i	0.91	-3	·	·	-0.2	108
- CCc1ccccc1NC(=O)CSc1nnc([C@@H](N)Cc2c[nH]c3ccccc23)o1
    i	0.87	-1	14	88	-2.2	120
- Cc1cc2c(s1)NC(=O)CN=C2c1cccs1
    i	0.8	-11	-46	78	-0.2	104
- O=c1c2ccccc2nc(/C=C/c2ccc3c(c2)OCO3)n1-c1cccc(O)c1
    i	0.93	-8	12	125	0.5	107
- O=C(c1ccc2c(c1)OCO2)C1CCCN(CC2CCCCC2)C1 (centres undefined)
    i	1	2	·	·	·	107
